Vaccinia Venus: qHTS for Stage-Specific Inhibitors of Vaccinia Orthopoxvirus: Venus Reporter Primary qHTS; Vaccinia virus Venus reporter expression, fluorescence; Potency, µM (highest dose often 36.5 µM), inactives show at the highest dose activity change, negative = inhibition, usual class: inhibitors; actives 0.46% (n = 330,000); active means well fitted inhibition curve with a large enough effect; inconclusive means small, poorly fitted or top-dose-only effect; inactive means no such curve, though single readings can be large or run the other way; tested in A549 cells; also: nearly all actives have a fitted effect of over 30% in size; inactives centre near -10
Vaccinia mCherry: qHTS for Stage-Specific Inhibitors of Vaccinia Orthopoxvirus: mCherry Reporter Primary qHTS; Vaccinia virus mCherry reporter infection, fluorescence; about a quarter of the inactives have no number; Potency, µM (top dose mostly 36.5 µM), inactives show at the top dose activity change, negative = inhibition, usual class: inhibitors; actives 0.63% (n = 310,000); AID 720579, 2013; active = well fitted inhibition curve with a large enough effect; inconclusive = small, poorly fitted or top-dose-only effect; inactive = no such curve, though single readings can be large or run the other way; tested in A549 cells; also: nearly all actives have a fitted effect of over 35% in size; inactives centre near -10
An asterisk follows results filed as active; i = inactive; ? = inconclusive; / = not tested or not shown; & = joins results of further samples; [ ] = remark or other dose. % is scaled to controls: 0 for no effect and ±100 for the full control effect; potency is read from the fitted curve at half-maximal effect. Compounds were not picked by outcome. Share with any hit: about 0.86%.

canonical_smiles,Vaccinia Venus,Vaccinia mCherry
CC(=O)c1ccc(Nc2cc(C)nc3ncnn23)cc1,-4%,-8%
COc1ccc(C2CCCCC2SCC(=O)O)cc1OC (stereo not given),-9%,-9%
Cc1cccc(OCC(=O)Nc2ccc(S(=O)(=O)N(Cc3ccccc3)c3ccccc3)cc2)c1,-10%,-23%
CCc1cccc(CC)c1NC(=O)Cn1c(-c2ccc(F)cc2)noc1=O,-1%,-1%
CCN1CCOC(=O)C1CC(=O)Nc1ccc(Br)cc1 (stereo not given),-4%,-5%
CCc1ccc(OCCn2c(CCNC(=O)C3CCCCC3)nc3ccccc32)cc1,-13%,19%
CC1(c2nnnn2-c2ccc3c(c2)OCCO3)CCC(=O)N1CCCN1CCOCC1 (stereo not given),-3%,i
C[C@H](CO)N1C[C@H](C)[C@@H](CN(C)C(=O)NC2CCCCC2)Oc2c(NC(=O)Nc3ccccc3)cccc2C1=O,-19%,-4%
COc1ccc(N2CC(C(=O)OCC(=O)Nc3ccccc3C)CC2=O)cc1 (stereo not given),2%,-9%
COC(=O)C1=C(C)NC(=O)/C1=C\c1cc(C)n(-c2ccccc2C)c1C,-16%,?
COc1cc(NC(=O)c2ccc(C)cc2)c(OC)cc1NC(=O)CN1CCCCC1,-30%,-5%
O=C(OCCSCCOC(=O)C1CC=CCC1)C1CC=CCC1 (stereo not given),-8%,i
COc1cc(/C=C2\SC(=S)N(Nc3ccccc3)C2=O)cc(OC)c1OC,-26%,/
Fc1ccc(Cn2nnnc2CN2CCc3ccccc3C2)cc1,-8%,-14%
O=C(NCCCN1CCOCC1)C(=O)N/N=C/c1c2ccccc2cc2ccccc12,?,?
CCCCCCSc1nsc(NC(=O)CCC)n1,-17%,-20%
CC1CCN(S(=O)(=O)c2ccc3c(c2)N(CC(=O)NCc2ccccc2)C(=O)CO3)CC1,-9%,-23%
CC(C)(O)P(C)(=O)c1ccccc1 (stereo not given),-6%,i
CCOC(=O)c1[nH]c2ccc(OC)cc2c1NC(=S)N1CCN(c2ccccc2OC)CC1,-28%,?
Cc1cccc(CC(=O)NCCN2CCOCC2)c1,-6%,-15%
CC1=CC2=NC(=O)/C(=C\c3cccn3CCOc3cc(C)cc(C)c3)C(=N)N2O1,-19%,?
NC(=O)CC(NC(=O)Cc1ccc(Br)cc1)c1ccc(NC2CCCCCCC2)c([N+](=O)[O-])c1 (stereo not given),-25%,-2%
Cc1c(N=C2C(=O)Nc3ccccc32)c(=O)n(-c2ccccc2)n1C,10%,?
COc1ccc(CN(C)c2ncnc3sccc23)c(OC)c1OC,?,-5%
COCCNS(=O)(=O)c1ccc2c3c(cccc13)C(=O)N2C,2%,-9%
CC(OCC(O)CN1CCCCC1CCO)c1ccc(Cl)cc1 (stereo not given),-16%,-16%
CC(OC(=O)c1cccn1C)C(=O)Nc1ccc2c(c1)OCO2 (stereo not given),-22%,-6%
CCc1nc2ccc(C(=O)NCCc3ccc(OC)cc3OC)cc2nc1CC,?,?
N/C(Cc1cccs1)=N\OC(=O)COc1ccccc1Cl,-6%,i
COc1ccccc1C1NC(c2ccc3c(c2)OCO3)=CC(c2cc(Br)ccc2O)N1 (stereo not given),9%,29%
COc1ccccc1CNC(=O)CN1C(=O)COc2ccc(S(=O)(=O)N3CCC(C)CC3)cc21,3%,-4%
C/C=C(/C)C(=O)Nc1cccc(C2=NOC3(C2)C[C@@H](C(N)=O)N(C(=O)c2ccc(OC)cc2)C3)c1 (stereo not given in full),2%,i
COc1ccc(-c2cc(C)no2)cc1S(=O)(=O)N1CCN(c2cccc(C)c2)C(C)C1 (stereo not given),?,?
Cc1ccc2c(c1)C(=O)OC(C(=O)Nc1ncc(Cc3ccc(C(C)C)cc3)s1)C2 (stereo not given),7%,-8%
CC(C)(C)NC(=O)C(=O)NC(=O)c1c(F)cccc1Cl,-9%,-15%
CCC(=O)C1=C(c2ccc(F)cc2)N(C(=O)CC)n2cnnc2S1,-4%[7.34 µM],-13%[7.34 µM]
CC1=CC(C)(C)NC(=S)N1c1ccc2ccccc2c1,-7%&-16%,-24%
O=C(Cc1ccc(NC2=NC3CS(=O)(=O)CC3S2)cc1)NCCc1ccccc1 (stereo not given),5%,-7%
CCCOc1ccc(CSC(CC(=O)O)C(=O)O)cc1 (stereo not given),-8%,-10%
OCC[C@H]1C[C@@H](O)[C@H](O)[C@]2(CCCc3ccccc3O2)O1,-5%,i
CCOC(=O)c1[nH]c(C)c(C(=O)NC)c1C,9%,-5%
COc1ccc(NC(=O)CSc2nc3ccccc3nc2N2CCCCC2)cc1,-4%&4%,-13%
COc1ccccc1CCNC(=O)Cc1c(C)c2cc(Cl)c(O)cc2oc1=O,-2%[7.34 µM],-4%[7.34 µM]
O=S(=O)(c1ccc2ccccc2c1)N1CCN=C1SCc1cccnc1,-21%,-18%
CC(C)c1ccc(NC(=O)Cn2ncn3c(cc4ccccc43)c2=O)cc1,-2%,-13%
CC1([N+](=O)[O-])COC2(CCCCC2)OC1,-4%,-9%
CCc1nc2c(OCCc3cccc(OC)c3)cccn2c1N(C)C(=O)c1ccc(OC)cc1,-17%,0%
N#Cc1cccc(NC(=O)c2cncn2-c2ccccc2)c1,-3%,-16%
O=C(C1=C[C@H](C2CC2)C[C@H](OCCCCO)O1)N1CCN(Cc2ccc3c(c2)OCO3)CC1,-20%,i
CCCc1nc(SCC(=O)N2CCC(Cc3ccccc3)CC2)c2c(=O)n(C)c(=O)n(C)c2n1,-14%,-13%

Next part.
canonical_smiles,Vaccinia Venus,Vaccinia mCherry
CCCN1C2=C(C(=O)CCC2)C(c2ccc(O)c(Br)c2)C2=C1CCCC2=O,-15%,-18%
CC(=O)c1ccc(N/N=C2/CCCNC2=O)cc1,-15%,-2%
c1ccc(-c2noc(COc3ccc4c(c3)OCO4)n2)cc1,-13%,/
Cc1ccc(CN2C(=O)c3ccccc3Sc3ccc(C(=O)NCCCN4CCOCC4)cc32)cc1,?,?
O=C(N/N=C/c1ccc[nH]1)c1ccccc1OCc1ccc(F)cc1,10%,-17%
O=C(CSc1nnc(NC(=O)c2ccccc2F)s1)Nc1ccccc1F,2%,-5%
Cc1cccc(CN2CCN(C(=O)Cc3ccccc3)CC2)c1,-5%,?
CN(C)CCCNC(=O)c1cc(C(=O)c2cccc(Cl)c2Cl)c[nH]1,-21%,-2%
COc1cc(OC)cc(C(=O)Nc2nc3ccccc3[nH]2)c1,-21%,/
O=C(NCc1ccccc1Br)c1cccc2c1C(=O)c1ccc(-c3ccc(OC(F)(F)F)cc3)cc1S2(=O)=O,?,-5%
CN(CCc1ccccc1)C(CCc1ccccc1)C(=O)Nc1ccc2c(c1)OCCO2 (stereo not given),-3%,i
COc1ccc(CC(=O)OCc2cc3ccccc3[nH]c2=O)cc1,-16%,/
Clc1ccccc1Nc1nnc(-c2ccncc2)s1,-9%,i
O=C(Cc1ccccc1Cl)Nc1nc2ccccc2[nH]1,-13%,i
COc1ccc(-c2nc3ccc(Br)cn3c2Cc2ccccc2C(F)(F)F)cc1OC,-10%,24%
CCO[C@@H]1OC(C(N)=O)=C[C@H](C2CCCCC2)[C@H]1CCCO,-13%,i
CNc1c(NC(=O)c2ccc(OC)c(OC)c2)c(=O)oc2ccccc12,5%,3%
CC(C)[C@H](N)C(=O)NC[C@H]1CC[C@H](C(=O)N[C@@H](Cc2ccccc2)C(=O)O)CC1,-11%,-1%
Cc1cc(C)c2nc(N(CCCN(C)C)C(=O)C3=COCCO3)sc2c1,?,-13%
CCC1CCCCN1C(=O)CSc1nc(-c2ccc(OC)c(OC)c2)cc(C(F)(F)F)n1 (stereo not given),-15%,-3%
Cc1cccc(N(Cc2ccccc2)C(=O)C2CCN(C(=O)c3ccccc3C)CC2)c1,-26%,-14%
CCc1ccc(NC(=O)C(C)Nc2ccc(S(=O)(=O)NC(C)=O)cc2)cc1 (stereo not given),-20%,-21%
CCC(C)c1ccc(OCCn2cc(/C=N/NC(=O)CSc3nnc(C)s3)c3ccccc32)cc1 (stereo not given),-17%,-22%
COc1ccc(C2OC(=O)Cc3cc(OC)c(OC)cc32)cc1 (stereo not given),4%,-3%
CCOc1ccc(C2c3c(-c4ccccc4O)n[nH]c3C(=O)N2Cc2cccnc2)cc1OC (stereo not given),-9%,-13%

Ordered by molar mass (low to high): 3 of the compounds above.
canonical_smiles,Vaccinia Venus,Vaccinia mCherry
O=C(N/N=C/c1ccc[nH]1)c1ccccc1OCc1ccc(F)cc1,10%,-17%
CCc1ccc(NC(=O)C(C)Nc2ccc(S(=O)(=O)NC(C)=O)cc2)cc1 (stereo not given),-20%,-21%
CCCN1C2=C(C(=O)CCC2)C(c2ccc(O)c(Br)c2)C2=C1CCCC2=O,-15%,-18%

(list continues)
canonical_smiles,Vaccinia Venus,Vaccinia mCherry
C=C1C2(C(=O)Nc3ccc(SC(F)F)cc3)CCC(C2)C1(C)C (stereo not given),-25%,-23%
C=CCOc1cccc(/C=N/NC(=O)CC(=O)NC2CCCCC2)c1,-15%,-14%
O=S(=O)(NC1CCN(Cc2ccccc2)CC1)c1ccc(Cl)cc1,-18%,-23%
Cc1ccc(NC(=O)c2ccc3c(=O)n4c(nc3c2)CCCCC4)nc1,-8%,-7%
CCOc1ncccc1C(=O)NCC(c1ccccc1)N(C)C (stereo not given),7%,-7%
CCCN(C(=O)Cn1nc(Cc2cccnc2)c2ccccc2c1=O)c1ccc(C(C)C)cc1,-10%,-13%
O=C(COC(=O)/C=C/c1ccccc1[N+](=O)[O-])Nc1ccc(S(=O)(=O)N2CCOCC2)cc1,-12%,i
CCc1ccccc1NC(=S)NNC(=O)c1ccccc1Cl,-12%,i
O=C(COc1ccccc1)NNc1nc2c(F)cccc2s1,2%,4%
COc1ccc(N(C(=O)/C=C/C(=O)Nc2cc(C)on2)C(C(=O)NC2CCCC2)c2ccccc2C)cc1 (stereo not given),?,?
CCCN(CCC)CCNC(=O)c1cc2c(-c3ccc(Cl)cc3)nn(C)c2s1,?,?
CCCNC(=O)C1(C)CCN(C(=O)COc2ccc(C(C)(C)C)cc2)C1 (stereo not given),3%,19%
Cc1noc(C)c1COc1ccc(C(=O)OCC(=O)N2c3ccccc3NC(=O)C2(C)C)cc1,-23%,/
COc1cc(C2c3cc4c(cc3OC(NNC(N)=O)C2C)OCO4)cc(OC)c1OC (stereo not given),?,-20%
CC(=O)c1ccc(NC(=O)c2ccc3c(c2)nnn3C2CCCC2)cc1,-6%,-7%
CCO[C@H]1OC(C(=O)N2CCOCC2)=C[C@@H](c2ccc(C(F)(F)F)cc2)[C@@H]1CCCO,-27%,i
COc1cccc(CNC(=O)C2CCN(S(=O)(=O)c3ccc4c(c3)CCC(=O)N4)CC2)c1,-2%,i
Cc1cc(C)n2nc(C(=O)OC(C)C(=O)c3ccccc3)nc2n1 (stereo not given),-7%,-1%
COc1ccc(S(=O)(=O)Cc2ccc(C(=O)N3CCN(C(=O)c4ccco4)CC3)o2)cc1,-7%,i
COc1ccccc1C(c1nnnn1CS(=O)(=O)c1ccc(C)cc1)N1CCSCC1 (stereo not given),-12%,i
CC(C)Cc1nc(N2CCN(C(=O)C(C)C)CC2)c(C#N)c2c1CCC2,-21%,-29%
COc1cccc(NC(=O)C(Sc2nc3ccccc3c(=O)n2CC(C)C)c2ccccc2)c1 (stereo not given),2%,i
c1ccc2c(c1)CC(N1CCCCC1)c1ccccc1N2 (stereo not given),-3%,-1%
Cc1cc2nc(-c3cccc(NC(=O)C(C)C)c3C)oc2cc1C,-5%,-13%
CC(C)N(Cc1cnn(C)c1)Cc1nc(Cc2ccccc2Cl)no1,1%,-7%
O=C(NCc1ccco1)C1CCCN(S(=O)(=O)c2cc(Cl)ccc2Cl)C1 (stereo not given),-6%,-12%
COc1ccc(OC)c(-c2nnc3n(CCc4ccccc4)c(=O)c4ccccc4n23)c1,4%,-17%
c1cn2c(NC3CCCCC3)c(-c3ccc(SC4CCCCC4)cc3)nc2cn1,?,-12%
C[C@H]1CN([C@@H](C)CO)C(=O)CCCn2nncc2CO[C@@H]1CN(C)S(=O)(=O)c1ccccc1,-13%,-5%
O=c1oc2ccccc2c(N2CCOCC2)c1[N+](=O)[O-],-12%,i
Cc1ccc(S(=O)(=O)NNC(=O)c2cc3cc4ccccc4nc3s2)cc1,-20%,-23%

Rewritten field by field: part of the list above.
structure: CC1=CC(C)(C)NC(=S)N1c1ccc2ccccc2c1
  Vaccinia Venus: -7%&-16% | Vaccinia mCherry: -24%

structure: O=C(Cc1ccc(NC2=NC3CS(=O)(=O)CC3S2)cc1)NCCc1ccccc1 (stereo not given)
  Vaccinia Venus: 5% | Vaccinia mCherry: -7%

structure: CCCOc1ccc(CSC(CC(=O)O)C(=O)O)cc1 (stereo not given)
  Vaccinia Venus: -8% | Vaccinia mCherry: -10%

structure: OCC[C@H]1C[C@@H](O)[C@H](O)[C@]2(CCCc3ccccc3O2)O1
  Vaccinia Venus: -5% | Vaccinia mCherry: i
